From PubChem BioAssay
StopGo reporter – FMDV 2A StopGo reporter, luciferase signal; human cells with a luciferase reporter of 2A StopGo recoding; control for the full effect not named in the record; Potency, µM (top dose mostly 57.9 µM), without a hit: at the top dose signal change, negative = less light; actives 1.2% (n = 410,000); AID 1159524; active = well fitted falling curve with a large enough effect; inconclusive = small, poorly fitted or top-dose-only effect; inactive = no such curve, though single readings can be large or run the other way; tested in HEK293T cells; further: on the % scale 0 is the no-effect control and ±100 the full control effect; nearly all actives have a fitted effect of over 45% in size; luciferase light after 4 h
Cruzain Triton – blocks cruzain activity in presence of Triton detergent. purified cruzain, Z-FR-AMC fluorescence, 0.01% Triton. AID 1478. P25779. Potency, µM, for inactives: max response, negative = inhibition, usual class: inhibitors. actives 0.43% (n = 200,000); active means well fitted curve in the direction sought with a large enough effect; inconclusive means small, poorly fitted or top-dose-only effect, or another doubt; inactive means no such curve, though single readings can be large; an effect the other way counts as inactive or inconclusive;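 further: plate controls were neutral wells for no effect and buffer without enzyme for full effect; nearly all actives have a fitted effect of over 40% in size; top concentration of the series not given in the record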
Target sequence (P25779 123-467 limits assumed): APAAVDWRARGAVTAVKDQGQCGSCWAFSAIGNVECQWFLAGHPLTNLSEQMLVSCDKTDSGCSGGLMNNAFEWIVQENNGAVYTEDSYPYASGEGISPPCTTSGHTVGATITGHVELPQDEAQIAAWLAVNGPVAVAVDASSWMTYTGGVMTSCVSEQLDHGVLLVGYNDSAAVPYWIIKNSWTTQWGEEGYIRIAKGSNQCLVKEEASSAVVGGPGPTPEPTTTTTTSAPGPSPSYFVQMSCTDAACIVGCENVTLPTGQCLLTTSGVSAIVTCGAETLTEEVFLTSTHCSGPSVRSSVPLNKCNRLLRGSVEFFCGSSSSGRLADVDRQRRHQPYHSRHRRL
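Compounds were screened in titration against cruzain (1.5 nM) with 0.01% Triton X-100 to counter colloidal aggregation. Activity was the AMC fluorescence increase over 60 s after adding 2 uM Z-FR-AMC at pH 5.5.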
RE007 growth inh – less growth of the S. pombe RE007 Vpr strain; S. pombe RE007 Vpr strain, BacTiter-Glo ATP luminescence, 24 h; control for the full effect not named in the record; Potency, µM (titrated, usually from 92.2 µM), for inactives: at the highest dose activity change, negative = less growth; actives 0.21% (n = 360,000); active = well fitted falling curve with a large enough effect; inconclusive = small, poorly fitted or top-dose-only effect; inactive = no such curve, though single readings can be large or run the other way;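 further: on the % scale 0 is the no-effect control and ±100 the full control effect; nearly all actives have a fitted effect of over 50% in size; the assay follows cell death caused by Vpr and the record does not say whether a fall means rescue or toxicity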
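Fission yeast strain RE007, carrying one chromosomally integrated HIV-1 vpr copy, was seeded at OD 0.01 in PMG+AL medium with 23 nL pinned compound. After 24 h at 30 °C and 99% humidity, viability was read by BacTiter-Glo luminescence.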
Cruzain noTriton – inhibitors of Trypanosoma cruzi cruzain without detergent; P25779; purified cruzain, Z-FR-AMC fluorescence, no detergent; Potency, µM, inactives show max response, negative = inhibition, hits mostly inhibitors; actives 2.3% (n = 200,000); active means well fitted curve in the direction sought with a large enough effect; inconclusive means small, poorly fitted or top-dose-only effect, or another doubt; inactive means no such curve, though single readings can be large; an effect the other way counts as inactive or inconclusive;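 further: plate controls were enzyme without inhibitor for no effect and buffer without enzyme for full effect; nearly all actives have a fitted effect of over 40% in size; top concentration of the series not given in the record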
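Purified cruzain at 1.5 nM, pre-incubated 15 min with compound at room temperature in 100 mM sodium acetate pH 5.5, 5 mM DTT, 0.00005% Triton X-100. Reaction started with 2 uM Z-FR-AMC; AMC fluorescence increase over 60 s gives rate.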
NS1 function inh – influenza NS1 inhibition; S. cerevisiae slowed by influenza A NS1, growth recovery by OD600; Potency, µM (doses to about 46.1 µM), for the others: at the top dose activity, positive = more growth; actives 0.4% (n = 270,000); AID 2326; further: actives are rising curves; nearly all actives have a fitted effect of over 50% in size
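A cell-based growth assay was used: compounds that relieve NS1-induced slow growth of budding yeast raise OD600. Assay medium was yeast nitrogen base with ammonium sulphate and -URA supplement, pH 6.0, with 2% galactose.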
MARV entry inh – inhibitors of Marburg virus binding or cell entry; actives 1.8% (n = 300,000); AID 540276; Potency, µM (titrated, usually from 37.8 µM), inactives show at the top dose activity change, negative = inhibition, actives largely listed as inhibitors; Marburg virus pseudotyped entry inhibition, cell reporter; control for the full effect not named in the record; about a third of the inactives were read at about 46 µM; active = well fitted inhibition curve with a large enough effect; inconclusive = small, poorly fitted or top-dose-only effect, or effect the other way; inactive = flat fitted curve, though single readings scatter; tested in HEK293 cells; about a fifth of its hits are not listed in these tables; further: on the % scale 0 is the no-effect control and ±100 the full control effect; luciferase read-out
SARS PLP yeast – SARS-CoV PLP inhibition in yeast; S. cerevisiae expressing SARS-CoV PLpro, growth rescue; control for the full effect not named in the record; Potency, µM (top dose mostly 32.9 µM), inactives show at the top dose activity, positive = growth rescue; actives 0.19% (n = 330,000); AID 485353; further: 0% is about no effect; nearly all actives have a fitted effect of over 55% in size; growth read by luminescence after 48 h
LASV entry inh – blocks Lassa virus binding to or entry into cells; Lassa virus pseudotype entry inhibition, cell reporter; control for the full effect not named in the record; Potency, µM (doses to about 37.9 µM), without a hit: at the highest dose activity change, negative = inhibition, hits mostly inhibitors; actives 1.2% (n = 300,000); active means well fitted inhibition curve with a large enough effect; inconclusive means small, poorly fitted or top-dose-only effect, or effect the other way; inactive means flat fitted curve, though single readings scatter; tested in HEK293 cells; further: on the % scale 0 is the no-effect control and ±100 the full control effect; nearly all actives have a fitted effect of over 50% in size; luciferase read-out
* hit, by the source's call; ? = inconclusive; . = no result given; & = joins results of further samples; [ ] = another dose, or the depositor's remark. Unless noted, the call rests on the fitted dose curve; in most records, active means well fitted rising curve with a large enough effect; inconclusive means small, poorly fitted or top-dose-only effect; inactive means no such curve, though single readings can be large or run the other way. Potency means the concentration at half of the fitted maximal effect.

#	smiles	StopGo reporter	NS1 function inh	RE007 growth inh	SARS PLP yeast	Cruzain Triton	MARV entry inh	Cruzain noTriton	LASV entry inh
1	Cc1cccc(CN2CCN(c3ccccn3)CC2)c1	-11%	.	0%	.	.	12%	.	6%
2	CN(C)/N=C/c1ccc(Sc2ccccc2[N+](=O)[O-])o1	-2%	.	10%	-1%	.	-5%	.	-1%[46.1 µM]
3	CC(=O)Oc1c(C)cc(Cl)cc1C(=O)Nc1ccc([N+](=O)[O-])cc1Cl	-19%	-65%	-2%	-87%	-0.2%	1.5µM*	-7%	3.7µM*
4	CC(Oc1ccc(Cl)cc1Cl)C(=O)NCCC1=CCCCC1 (stereo not given)	?	-26%	-26%	3%	-4.7%	-4%	8%	-3%
5	NC(=O)COc1ccc(Cc2ncc(C(F)(F)F)cc2Cl)cc1	-25%	2%	4%	0%	.	-10%[46.1 µM]	.	.
6	O=C(CSC1=NS(=O)(=O)c2cc(Cl)ccc2N1)NCc1ccccc1	-8%	.	7%	-4%	.	0%	.	9%
7	O=C(N/N=C/c1ccccn1)c1ccc([N+](=O)[O-])cc1	54%[activator]	.	-14%	3%	.	-4%[46.1 µM]	.	20%
8	Cc1cc2c(cc1S(=O)(=O)N1CCOCC1)NC(=O)CO2	8%	1%	-6%	1%	.	4%[46.1 µM]	.	4%[46.1 µM]
9	Cc1ccc(C2(C)NC(=O)N(CC(=O)Nc3ccc(S(=O)(=O)Nc4nccs4)cc3)C2=O)cc1 (stereo not given)	-3%	.	-12%	.	.	3%	.	19%
10	O=C(O)c1ccc(-n2ccnc2)c([N+](=O)[O-])c1	-13%	0%	15%	12%	-1.2%	9%	3%	18%
11	C/C(=N\NC(=O)C1CC1)c1ccc(Cl)c(Cl)c1	49%[activator]	-15%	3%	-5%	-4.4%	10%	11%	16%
12	O=C(NCCCc1ccccc1)c1ccccc1O	.	-249%	?	5%	-3.0%	1%	-4%	25%
13	Cc1ccccc1CS(=O)(=O)CCC(=O)O	-2%	.	-1%	-3%	.	23%[46.1 µM]	.	3%[46.1 µM]
14	C/C(Cn1nc([N+](=O)[O-])cc1C)=N\NC(=O)COc1c(Cl)cc(Cl)cc1Cl	-7%	1%	-30%	-1%	-5.1%	5%	17%	-4%
15	COc1ccc([N+](=O)[O-])cc1N(CC(=O)NCCCOC(C)C)S(C)(=O)=O	-1%	1%	0%	1%	.	-1%	.	14%[46.1 µM]
16	O=C(O)CC12CC3CC(C1)CC(n1ncc(N4CCC5(CC4)OCCO5)c(Cl)c1=O)(C3)C2	-11%	4%	16%	1%	.	.	.	.
17	O=C(O)C1C2CCC(O2)C1C(=O)NC1CCCCC1 (stereo not given)	-15%	25%	-3%	14%	0.9%	13%	-4%	?
18	O=c1c(Cl)c(Cl)cnn1Cc1ccc(F)cc1	40µM*	-3%	2%	-4%	.	?	.	21µM*
19	CC1CCN(S(=O)(=O)c2c[nH]c(=O)[nH]c2=O)CC1	3%	.	2%	-9%	.	-5%[46.1 µM]	.	9%
20	CCOC(=O)N1CCc2c(sc(NC(=O)c3ccc(Cl)s3)c2C(N)=O)C1	.	-131%	.	.	-8.7%	?	?	-21%
21	CC(=O)Nc1ccc(NC(=O)c2cc(-c3ccccc3)nc3ccccc23)cc1	-14%	11%	-11%	-1%	.	-22%	.	-1%
22	CC(=O)O[C@@H]1C[C@H]2C(C)(C)C(=O)C=C[C@]2(C)[C@H]2CC[C@@]3(C)[C@H](c4ccoc4)OC(=O)[C@H]4O[C@]43[C@@]21C	16µM*	17%	3%	4%	-0.7%	?	20%	18µM*
23	CCCCN(CC)Cc1c(C)[nH]c2ccccc2c1=O	-17%	-12%	13%	5%	6.4%	19%[46.1 µM]	-6%	4%
24	O=C(c1ccc(N2CCCCS2(=O)=O)cc1)N1CCN(c2ccc(N3CCOCC3)nn2)CC1	-3%	4%	-13%	-1%	-1.8%	-12%	-15%	-10%
25	NNC(=O)c1ccc(CN2CCCCC2)o1	-11%	.	-4%	5%	.	4%	.	2%
26	CC1CCCC(NCC(=O)Nc2ccc(C(N)=O)cc2)C1C (stereo not given)	-20%	.	-1%	-1%	.	-15%[46.1 µM]	.	26%
27	S=C(Nc1ccc(Br)cc1Cl)NC1CCN(Cc2ccccc2)CC1	-16%	5%	-1%	-1%	.	?	.	-24%[46.1 µM]
28	Cc1cc([N+](=O)[O-])nn1CC(=O)Nc1sc2c(c1C(N)=O)CCCC2	1%	.	-17%	0%	.	8%[46.1 µM]	.	?
29	CCN(CC)C(=O)C[n+]1ccc(C(N)=O)cc1	0%	.	-7%	2%	.	0%	.	-9%
30	COc1ccc(CCNS(=O)(=O)c2cc(C(=O)O)c(Cl)cc2Cl)cc1	-7%	5%	-15%	0%	.	.	.	.
31	O=S(=O)(NCC(c1cccnc1)N1CCN(c2ccc(F)cc2)CC1)c1ccccc1 (stereo not given)	.	-45%	-19%	.	.	-26%	.	4%
32	COCCCNC(=S)N/N=C/c1ccc(OC)cc1	5%	0%	-21%	0%	.	?	.	-12%
33	O=c1[nH]c2ccccc2n1Cc1ccc(Cl)cc1	?	-5%	76%	-3%	-2.4%	-19%	0%	-8%
34	COc1ccc2c(CNCC(C)c3ccccc3)c(C(=O)O)n(Cc3ccc(F)cc3Cl)c2c1 (stereo not given)	-12%	.	.	.	-0.7%	.	-9%	4%[46.1 µM]
35	COc1cc(OC)cc(C(=O)NNC(=O)c2ccc3c(c2)OCCO3)c1	18%	.	12%	0%	.	17%	.	-17%
36	COc1cccc(-c2ccc(SCC(=O)N3CCc4ccccc43)nn2)c1	.	0%	.	2%	-2.9%	12%	5%	-5%
37	O=C(C1=C[C@@H]2[C@H]3C(=O)N(c4cccc(Cl)c4)C(=O)[C@H]3[C@@H](C(=O)c3ccc(Cl)cc3)N2C=C1)c1ccccc1	-1%	15%	-6%	9%	0.3%	6%	16µM*	-15%
38	Cn1cccc1CC(=O)NNC(=O)Nc1cccc(Cl)c1	23%	-3%	-10%	-6%	1.1%	-39%	14%	2%
39	COc1ccc(C(=O)NCN2CCN(c3ccccc3)CC2)cc1OC	-14%	.	-5%	12%	.	?	.	-1%
40	Cc1ccnc(NC(=O)c2ccc(Cl)c(NC(=O)C(C)Oc3ccccc3)c2)c1 (stereo not given)	-8%	-3%	15%	-1%	.	?	.	-19%
41	CC(C)(C#N)Cc1cc(CC(C)(C)C#N)cc(C(C)(C)C)c1	-26%	-1%	-3%	3%	.	.	.	.
42	Cc1ccccc1CN1C(=O)c2ccccc2S(=O)c2ccc(C(=O)NCc3ccc(Cl)cc3)cc21 (stereo not given)	-7%	.	.	.	0.4%	.	?	-19%[46.1 µM]
43	O=C(c1cccc(S(=O)(=O)Nc2ccccc2F)c1)N1CCN(c2ccccc2F)CC1	4%	2%	1%	2%	.	?	.	-18%
44	COc1ccccc1CNC(=O)CCCNC(=O)c1ccc(Cl)cc1	-4%	-10%	12%	-5%	.	-3%[46.1 µM]	.	-5%
45	CCC1CCc2sc(C(=O)NCc3ccccn3)cc2C1 (stereo not given)	26%	-30%	2%	-5%	.	?	.	9%[46.1 µM]
46	O=C(O)c1ccccc1OCC1CCCO1 (stereo not given)	4%	4%	-12%	3%	.	-6%[46.1 µM]	.	16%[46.1 µM]
47	CN(Cc1ccccc1)C(=O)c1ccc2c(c1)N(Cc1ccccc1F)C(=O)c1ccccc1S2(=O)=O	43%[activator]	.	.	.	1.5%	?	-5%	?
48	Cc1c(N(C)C)c(=O)n(-c2ccccc2)n1C	0%	.	8%	1%	5.4%&-0.3%	.	-2%&-5%	.
49	Cc1cccc(NC(=O)C2CCC(CNC(=O)[C@@H]3Cc4ccccc4CN3)CC2)c1 (stereo not given in full)	-21%	-8%	-5%	1%	.	?	.	6%[46.1 µM]
50	Cc1cc(NC(=O)CCC(=O)N(c2cccnc2)C(C(=O)NC2CCCC2)c2ccccc2)no1 (stereo not given)	4%	-6%	-9%	1%	1.1%	?	10%	4%
51	Cc1nc(C)n(C(=O)N(c2ccccc2)c2ccccc2)n1	-10%	5%	21%	2%	-2.8%	2%	7%	24%
52	COc1cccc(C(=O)N(C)CC2CCN(CCc3cccc(C(F)(F)F)c3)CC2)c1	-26%	22%	-17%	3%	.	.	.	.
53	CC(=O)N1c2ccc(S(=O)(=O)N3CCCCC3)cc2CC1C(=O)Nc1ccccc1C(F)(F)F (stereo not given)	-18%	10%	-2%	-1%	.	.	.	.
54	C[C@H](NS(=O)(=O)c1ccc(Cl)cc1)C(=O)OCC(=O)Nc1cc(S(=O)(=O)N2CCOCC2)ccc1Cl	-11%	.	10%	.	.	40%	.	10%
55	S=C(NCCc1ccccc1)NCc1ccccc1Cl	47%[activator]	-46%	-13%	-9%	-2.9%	29%	3%	-1%
56	COc1ccccc1CCC(=O)Nc1ccc(C)cc1Cl	3%	.	3%	-1%	.	-9%[46.1 µM]	.	5%

The results go on:
#	smiles	StopGo reporter	NS1 function inh	RE007 growth inh	SARS PLP yeast	Cruzain Triton	MARV entry inh	Cruzain noTriton	LASV entry inh
57	CCN(C(=O)COC(=O)c1cc(S(=O)(=O)N(C)C)ccc1Cl)C1CCS(=O)(=O)C1 (stereo not given)	-21%	.	-13%	2%	.	4%	.	16%
58	CC(=O)Nc1ccc2c(c1)[nH]c(=O)c1ccccc12	7%	.	12%	.	.	-4%	.	12%
59	CCCOc1ccccc1C1C(C(=O)OC)=CN(C(C)C)C=C1C(=O)OC	?	-61%	1%	1%	-20%	?	?	-1%
60	COc1ccccc1N1CCN(C(CNC(=O)c2ccco2)c2cccnc2)CC1 (stereo not given)	-11%	?	7%	8%	-3.7%	.	6%	.
61	COc1ccc(CCNC(=O)COC(=O)c2cnc(C)cn2)cc1	-5%	5%	9%	-8%	4.5%	0%	-16%	12%
62	Cc1nn2c(=S)[nH]nc2[nH]c1=O	10%	.	-1%	1%	.	2%[46.1 µM]	.	-1%
